Assay outcomes (PubChem BioAssay)
eIF4H FP inh: inhibitors of RNA binding by human eIF4H; AID 2012; eIF4H fluorescence polarization binding assay; hit rate 0.94% among 290,000; inhibition, % at 35 µM; Q15056;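 active means 50% or more with normal probe brightness, or confirmed in later tests; about a fifth of its hits are not listed in these tables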;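 further: calls also rest on retests at 20 µM and on dose response follow-up; 0% = protein and probe with vehicle and 100% = probe without protein; strong numbers were not always called active; many hits fall short of the cut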
PABP FP inh: PABP-poly(A) binding inhibition | AID 2014 | inhibition, % at 35 µM | hit rate 1% among 290,000 | P11940 | PABP-poly(A) RNA binding, fluorescence polarization;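 active means 50% or more with normal probe brightness, or confirmed in later tests; about a fifth of its hits are not listed in these tables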;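 further: calls also rest on retests at 20 µM and on dose response follow-up; controls were probe without protein and protein plus probe with vehicle; some compounds called inactive have numbers as strong as hits; many hits fall short of the cut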
Target sequence (P11940 whole entry, looked up): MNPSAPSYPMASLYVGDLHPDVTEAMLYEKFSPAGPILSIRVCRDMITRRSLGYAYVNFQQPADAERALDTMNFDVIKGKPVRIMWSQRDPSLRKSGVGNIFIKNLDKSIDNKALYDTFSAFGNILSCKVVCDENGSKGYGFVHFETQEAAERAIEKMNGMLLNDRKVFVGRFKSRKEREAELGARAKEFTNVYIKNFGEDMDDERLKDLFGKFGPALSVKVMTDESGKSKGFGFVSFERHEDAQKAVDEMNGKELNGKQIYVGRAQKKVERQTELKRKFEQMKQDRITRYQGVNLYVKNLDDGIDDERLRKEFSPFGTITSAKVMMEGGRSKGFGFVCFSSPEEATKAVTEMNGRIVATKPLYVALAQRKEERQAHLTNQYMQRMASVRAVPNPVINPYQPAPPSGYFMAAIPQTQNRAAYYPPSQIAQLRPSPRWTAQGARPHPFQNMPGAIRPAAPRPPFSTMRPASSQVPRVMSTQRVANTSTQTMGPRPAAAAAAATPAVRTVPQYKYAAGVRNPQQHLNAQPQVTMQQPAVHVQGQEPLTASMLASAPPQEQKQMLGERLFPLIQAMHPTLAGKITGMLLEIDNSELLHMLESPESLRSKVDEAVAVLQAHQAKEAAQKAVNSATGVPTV
CSC inhib: blocks cancer stem cells | hit rate 1.1% among 300,000 | cancer stem cell-like cells viability, luminescence | inhibition, % at 7.5 µM;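 active means mean at 75% or more and at least half the replicates too; tested in HMLE shEcad cells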;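 further: 0% = median of negative and 100% = median of positive control wells; the first replicate is given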
Env fusion inh: HIV envelope-mediated fusion inhibition. HeLa-JRFL Env/CEM21 cell fusion, luciferase. inhibition, % at 12.3 µM. hit rate 1.1% among 360,000;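 active means mean replicate inhibition score of at least 50 and every replicate individually at or above 50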;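 further: 0% = plate neutral controls and 100% = maraviroc near 300 nM; one replicate is shown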
Rce1 inh: blocks yeast Ras-converting enzyme | Q03530 | yeast membranes, quenched prenylated peptide cleavage fluorescence | calls only | hit rate 0.27% among 290,000 | AID 2563;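 active means fall in fluorescence gain of 50% or more versus controls, with final raw signal at or below 3038400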;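 further: plate controls were neutral control wells for no effect and wells lacking membranes for full effect; tested at 10 µM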
MT1-MMP act inh: inhibitors of human MT1-MMP activation; HT1080 RFP-PRO-GFP cells, GFP/RFP ratio fluorescence, overnight; percent of plate control window, DMSO zero; AID 651647; hit rate 0.061% among 360,000; GFP/RFP ratio change, % at 20 µM;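 active means GFP/RFP ratio change of at least 30% with cell ATP level not reduced by more than half and red fluorescence within 50% of control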; further: strong numbers were not always called active
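Assay system: HT1080 RFP-PRO-GFP cells | Dosing: 20 µM single dose, 1% DMSO | Incubation: Cells overnight before dosing, compound overnight, 37 °C, 5% CO2 | Evaluation: GFP/RFP fluorescence ratio | Control set: DMSO-only wells and HT1080 RFP-L50D-GFP cell wells as references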
Yeast UUG start: modulators of start codon recognition fidelity in yeast; S. cerevisiae UUG-firefly luciferase reporter, luminescence/redox ratio; activity score, % at 18.7 µM; hit rate 0.13% among 350,000;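 active means replicate mean at a twofold rise or more, about +100% in these data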;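 further: firefly luciferase made from a UUG start codon reports start codon fidelity; reporter light over untreated wells divided by growth signal over untreated wells; some hits fall short of that in this replicate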
MT1-MMP act inh RFP: further read-out of MT1-MMP act inh, marked with its call; RFP signal change, %; measured here: RFP expression control read;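 0 = vehicle wells; hits needed this value within 50% of zero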
* = called active by the depositor. A portion of the library; the hit share may differ from the screen's.

Screening COC(=O)Cn1c(=NC(=O)c2ccc(OC)cc2)sc2cc(OC)ccc21 returned eIF4H FP inh -4, PABP FP inh 12, CSC inhib 3, Env fusion inh 31, Rce1 inh inactive, MT1-MMP act inh 2 and MT1-MMP act inh RFP -1.
`COc1cccc(NC(=O)CSc2nnc(Cn3nnc4ccccc43)n2C)c1` gave eIF4H FP inh -8, PABP FP inh -3, CSC inhib -13, MT1-MMP act inh 1, Yeast UUG start -28 and MT1-MMP act inh RFP 2.
`Cc1cccc2nc(CNC(=O)CC3C(=O)NCCN3Cc3cccc(F)c3)cn12` (stereo not given) gave eIF4H FP inh 4, PABP FP inh 8, CSC inhib 18, Env fusion inh 8, Rce1 inh inactive, MT1-MMP act inh -4, Yeast UUG start -9 and MT1-MMP act inh RFP -6.
Screening Cc1ccc(C(C)C)cc1OCC(=O)NNC(=O)Nc1ccccc1 returned eIF4H FP inh -7, PABP FP inh -2, CSC inhib -3, Env fusion inh 3, Rce1 inh inactive, MT1-MMP act inh 8, Yeast UUG start -14 and MT1-MMP act inh RFP -5.
Screening CCOc1c(Nc2ccc(C(C)C)cc2)c(=O)c1=O returned eIF4H FP inh -1, PABP FP inh -1, CSC inhib 3, Env fusion inh 13, Rce1 inh inactive, MT1-MMP act inh -2, Yeast UUG start -10 and MT1-MMP act inh RFP -4.
Cc1ccccc1NC(=O)Nc1nnc(CC(=O)NCc2ccccc2)s1 was read as eIF4H FP inh 6, PABP FP inh -10, Env fusion inh -19, Rce1 inh inactive, MT1-MMP act inh 0, Yeast UUG start -10 and MT1-MMP act inh RFP -3.
`NC(=O)C1CCCN(S(=O)(=O)c2ccc3ccccc3c2)C1` (stereo not given) gave eIF4H FP inh -4, PABP FP inh -4, CSC inhib -14, Env fusion inh -8, Rce1 inh inactive, MT1-MMP act inh 2, Yeast UUG start 1 and MT1-MMP act inh RFP 5.
COc1ccc(CCNC(=O)CCCCCN2C(=O)[C@@H]3Cc4ccccc4CN3C2=O)cc1OC was read as CSC inhib -10, Env fusion inh 6, Rce1 inh inactive, MT1-MMP act inh 0, Yeast UUG start 17 and MT1-MMP act inh RFP -6.
`COc1cccc(CN(C)C(=O)CCN=C2NS(=O)(=O)c3ccccc32)c1` gave CSC inhib 13, Env fusion inh -11, MT1-MMP act inh 4, Yeast UUG start -8 and MT1-MMP act inh RFP 2.
For CCC1(C)Cc2c(sc3c2c(=O)n(C)c2nnc(SCC(=O)c4ccccc4)n32)CO1 (stereo not given) the results were CSC inhib -2, Env fusion inh -33, Rce1 inh inactive, MT1-MMP act inh 3, Yeast UUG start -3 and MT1-MMP act inh RFP 0.
Screening COc1ccc(Cl)cc1C(=O)NNC(=O)C1CCCO1 (stereo not given) returned Env fusion inh 5, MT1-MMP act inh 5, Yeast UUG start -17 and MT1-MMP act inh RFP 1.
`NS(=O)(=O)c1ccc(N2C(=O)C3C4CC(C(Br)C4Br)C3C2=O)cc1` (stereo not given) gave eIF4H FP inh -1, PABP FP inh -5, Env fusion inh 26, MT1-MMP act inh 0 and MT1-MMP act inh RFP 3.
COc1ccc(CN2[C@@H](CC(C)=O)c3ccc(/C=C/C(C)=O)cc3S2(=O)=O)cc1 was read as CSC inhib 17, Env fusion inh -4, Rce1 inh inactive, MT1-MMP act inh 11, Yeast UUG start -19 and MT1-MMP act inh RFP -5.
Cc1nc(N2CCN(c3ccccn3)CC2)c2c(C)c(C(=O)Nc3ccc(F)cc3F)sc2n1 was read as eIF4H FP inh 5, PABP FP inh -4, CSC inhib -12, Env fusion inh 11, Rce1 inh inactive, MT1-MMP act inh -1, Yeast UUG start -6 and MT1-MMP act inh RFP -15.
Cc1ccc(Nc2nc(N)nc(CN3CCN(C)CC3)n2)cc1 was read as eIF4H FP inh 11, PABP FP inh 4, CSC inhib 0, Env fusion inh -41, Rce1 inh inactive, MT1-MMP act inh 1, Yeast UUG start -38 and MT1-MMP act inh RFP 4.
Cc1nn(CC(=O)Nc2ccc3c(c2)OCO3)c(C)c1[N+](=O)[O-] was read as eIF4H FP inh -13, PABP FP inh 7, CSC inhib -8, Env fusion inh 4, Rce1 inh inactive, MT1-MMP act inh -2, Yeast UUG start -11 and MT1-MMP act inh RFP -2.
O=C(O)CCc1nnc2n(Cc3ccc(F)cc3)c(=O)c3ccccc3n12 was read as eIF4H FP inh -3, PABP FP inh 12, CSC inhib 3, Env fusion inh -161, Rce1 inh inactive, MT1-MMP act inh 3, Yeast UUG start -8 and MT1-MMP act inh RFP 5.
`O=C(OCC(F)(F)C(F)F)c1ccccc1C(=O)Oc1ccc(F)cc1F` gave eIF4H FP inh 0, PABP FP inh -5, CSC inhib -3, Env fusion inh 14, Rce1 inh inactive, MT1-MMP act inh -1 and MT1-MMP act inh RFP 3.
For Cc1ccccc1NC(=O)c1snc2c(=O)[nH]cnc12 the results were eIF4H FP inh -4, PABP FP inh -2, CSC inhib -5, Env fusion inh 4 and Rce1 inh inactive.
`O=C1CCCCN1CCc1c[nH]c2ccccc12` gave eIF4H FP inh 2, PABP FP inh 19, CSC inhib -9, Env fusion inh 4, Rce1 inh inactive, MT1-MMP act inh -1, Yeast UUG start -8 and MT1-MMP act inh RFP 0.
`CSCCC(NC(=O)c1ccccc1Br)C(=O)NCC1CCCCC1` (stereo not given) gave eIF4H FP inh -8, PABP FP inh 10, CSC inhib -16, Env fusion inh -1, Rce1 inh inactive, MT1-MMP act inh -5 and MT1-MMP act inh RFP 0.
CC(=O)Nc1ccccc1NC(=O)C/C(C)=N/NC(=O)C(=O)N1CCCCC1 was read as eIF4H FP inh 3, PABP FP inh 13, Env fusion inh -4, Rce1 inh inactive, MT1-MMP act inh -3, Yeast UUG start -13 and MT1-MMP act inh RFP 1.
For COc1ccc(-c2csc(NS(=O)(=O)c3ccc([N+](=O)[O-])cc3)n2)cc1 the results were eIF4H FP inh -6, PABP FP inh 10, CSC inhib -13, Rce1 inh inactive, MT1-MMP act inh 7 and MT1-MMP act inh RFP -1.
`CC1CCCC(C)N1C(=O)COc1ccc(F)cc1` (stereo not given) gave eIF4H FP inh -18, PABP FP inh 4, CSC inhib -3, Env fusion inh -61, Rce1 inh inactive, MT1-MMP act inh -1 and MT1-MMP act inh RFP -2.
`COc1ccc(CNC[C@@H](CCCCN(C)Cc2ccc(OC)cc2)N2C[C@H](c3ccccc3)N(CCc3ccc(Cl)c(Cl)c3)C(=O)C2=O)cc1` gave eIF4H FP inh 0, PABP FP inh -17, CSC inhib 107*, Rce1 inh inactive, MT1-MMP act inh -35, Yeast UUG start 18 and MT1-MMP act inh RFP -23.
COc1ccc([N+](=O)[O-])c(OC)c1C(=O)NC(=O)Nc1c(F)c(F)c(F)c(F)c1F was read as eIF4H FP inh -1, PABP FP inh 2, CSC inhib -8, Env fusion inh -2, Rce1 inh inactive, MT1-MMP act inh -2, Yeast UUG start -5 and MT1-MMP act inh RFP -7.
For COCCN(C(=O)CSc1n[nH]c(-c2ccc(OC)cc2)n1)c1c(N)n(Cc2ccccc2)c(=O)[nH]c1=O the results were CSC inhib -1, Rce1 inh inactive, MT1-MMP act inh -5, Yeast UUG start -11 and MT1-MMP act inh RFP 1.
For CCOc1cc(OCC)cc(C(=O)Nc2cccc(C(C)=O)c2)c1 the results were eIF4H FP inh 3, PABP FP inh 6, CSC inhib 6, Env fusion inh -1, Rce1 inh inactive, MT1-MMP act inh 6, Yeast UUG start -6 and MT1-MMP act inh RFP 7.
Screening CN(C)CCCC1Sc2ccccc2Sc2ccccc21 (stereo not given) returned CSC inhib 10, Env fusion inh 18, Rce1 inh inactive, MT1-MMP act inh -1 and MT1-MMP act inh RFP -4.
O=C(/C=C/c1ccc(Cl)c(Cl)c1)NC1=NCCS1 was read as eIF4H FP inh -3, PABP FP inh -11, CSC inhib -10, Env fusion inh 13, Rce1 inh inactive, MT1-MMP act inh 0 and MT1-MMP act inh RFP 0.
Screening CC1C(=O)C(C)C(c2ccccc2F)NC1c1ccccc1F (stereo not given) returned eIF4H FP inh -2, PABP FP inh 10, CSC inhib -9, Env fusion inh -1, Rce1 inh inactive, MT1-MMP act inh 3, Yeast UUG start -7 and MT1-MMP act inh RFP 1.
O=C(C1CCN(C2CC(=O)N(c3cccc(Cl)c3)C2=O)CC1)N1CCCCCC1 (stereo not given) was read as eIF4H FP inh 0, PABP FP inh 0, CSC inhib -3, Rce1 inh inactive, MT1-MMP act inh 1, Yeast UUG start -8 and MT1-MMP act inh RFP 2.
For COc1ccc(C(=O)Nc2ccccc2-c2nnn(CC(=O)N3CCOCC3)n2)cc1 the results were eIF4H FP inh -4, PABP FP inh 4, CSC inhib -15, Env fusion inh 3, Rce1 inh inactive, MT1-MMP act inh -3 and MT1-MMP act inh RFP 2.
CC[C@@H]1CC=C[C@H]2[C@H]1C(=O)N(Cc1ccccc1)[C@H]2c1ccc(C(F)(F)F)cc1 was read as eIF4H FP inh -5, PABP FP inh -10, CSC inhib 40, Env fusion inh 57*, Rce1 inh inactive, MT1-MMP act inh -12, Yeast UUG start -4 and MT1-MMP act inh RFP -19.
Screening O=[N+]([O-])c1nn(-c2ccccc2)n(O)c1=NCCc1ccccc1 returned eIF4H FP inh 1, PABP FP inh -8, CSC inhib 0, Rce1 inh inactive, MT1-MMP act inh 4, Yeast UUG start -11 and MT1-MMP act inh RFP 1.
COCCN(C(=O)COC(=O)CCOc1cccc(C)c1)c1c(N)n(Cc2ccccc2)c(=O)[nH]c1=O was read as CSC inhib 0, Env fusion inh -21, Rce1 inh inactive, MT1-MMP act inh 1, Yeast UUG start -9 and MT1-MMP act inh RFP -5.

Quoted from above for reference:
`COc1ccc(CNC[C@@H](CCCCN(C)Cc2ccc(OC)cc2)N2C[C@H](c3ccccc3)N(CCc3ccc(Cl)c(Cl)c3)C(=O)C2=O)cc1` gave eIF4H FP inh 0, PABP FP inh -17, CSC inhib 107*, Rce1 inh inactive, MT1-MMP act inh -35, Yeast UUG start 18 and MT1-MMP act inh RFP -23.
COc1ccc([N+](=O)[O-])c(OC)c1C(=O)NC(=O)Nc1c(F)c(F)c(F)c(F)c1F was read as eIF4H FP inh -1, PABP FP inh 2, CSC inhib -8, Env fusion inh -2, Rce1 inh inactive, MT1-MMP act inh -2, Yeast UUG start -5 and MT1-MMP act inh RFP -7.
For COCCN(C(=O)CSc1n[nH]c(-c2ccc(OC)cc2)n1)c1c(N)n(Cc2ccccc2)c(=O)[nH]c1=O the results were CSC inhib -1, Rce1 inh inactive, MT1-MMP act inh -5, Yeast UUG start -11 and MT1-MMP act inh RFP 1.

(list continues)
Cc1ccc(-n2cnc3c(=O)[nH]cnc32)cc1[N+](=O)[O-] was read as Env fusion inh 28, MT1-MMP act inh 0, Yeast UUG start -7 and MT1-MMP act inh RFP -2.
For O=C(Nc1ncc(Cc2ccccc2)s1)c1cccs1 the results were eIF4H FP inh -13, PABP FP inh -3, CSC inhib 50, Rce1 inh inactive, MT1-MMP act inh 2, Yeast UUG start -45 and MT1-MMP act inh RFP -15.
Cc1onc(-c2c(Cl)cccc2Cl)c1C(=O)Nc1nccs1 was read as eIF4H FP inh -6, PABP FP inh 11, CSC inhib 2, Env fusion inh 10, Rce1 inh inactive, MT1-MMP act inh -1, Yeast UUG start -19 and MT1-MMP act inh RFP 1.
Screening O=C(NCC(O)CO)c1csc(Nc2cccc3ccccc23)n1 (stereo not given) returned eIF4H FP inh 9, PABP FP inh -2, Env fusion inh 27, Rce1 inh inactive, MT1-MMP act inh 5, Yeast UUG start -17 and MT1-MMP act inh RFP 8.
`O=C(NCC(O)c1ccc([N+](=O)[O-])cc1)c1cccc(S(=O)(=O)N2CCOCC2)c1` (stereo not given) gave eIF4H FP inh -13, PABP FP inh 1, CSC inhib 4, Env fusion inh 11, Rce1 inh inactive, MT1-MMP act inh 0, Yeast UUG start -1 and MT1-MMP act inh RFP 0.
Screening CC(=O)Nc1ccc(NC(=O)CCOc2ccccc2C)cc1 returned eIF4H FP inh 7, PABP FP inh 2, CSC inhib 2, Env fusion inh -16, Rce1 inh inactive, MT1-MMP act inh 3 and MT1-MMP act inh RFP 1.
